Source: PubChem (several laboratories)
HNF4A DNA FP: change in binding of human HNF4 alpha to DNA | HNF4a-FITC DNA binding, fluorescence polarization, 1 h | 360,000 compounds, 0.3% hits | activity change, % at 10 µM | P41235; in the data active = activity change above about 30%, passing the limit was not always enough;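 also: controls were the assay level and a saturating level of protein; the project sought stronger binding though the title names inhibitors; some compounds called inactive have numbers as strong as hits; positive values seem to mean higher polarization but the record does not say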
Target sequence (P41235 whole entry, looked up): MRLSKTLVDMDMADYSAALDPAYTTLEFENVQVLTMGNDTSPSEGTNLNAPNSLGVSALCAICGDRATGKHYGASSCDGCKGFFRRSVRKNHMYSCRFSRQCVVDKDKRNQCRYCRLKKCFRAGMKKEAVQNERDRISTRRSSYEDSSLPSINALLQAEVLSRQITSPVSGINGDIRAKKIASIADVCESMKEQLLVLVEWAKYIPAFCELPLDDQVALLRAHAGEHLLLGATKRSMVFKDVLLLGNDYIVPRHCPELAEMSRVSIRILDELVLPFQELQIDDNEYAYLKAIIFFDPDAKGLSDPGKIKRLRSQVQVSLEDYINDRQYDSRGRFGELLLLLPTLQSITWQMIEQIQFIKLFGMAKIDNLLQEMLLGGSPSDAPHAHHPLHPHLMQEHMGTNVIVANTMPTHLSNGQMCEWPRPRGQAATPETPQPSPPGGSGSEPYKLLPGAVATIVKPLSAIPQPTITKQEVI
ALR inh: human ALR oxidase inhibition via reduced H2O2; inhibition, % (concentration not given with the values); P55789; purified ALR, DTT oxidation, H2O2 HRP-luminol luminescence; 290,000 compounds, 3.8% hits; AID 485317;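 active = mean and each replicate at 75% or more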;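 also: stock transfer was 7.5 nL into about 7.5 µL; 0% = neutral wells and 100% = wells with inactivated enzyme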
Target sequence (P55789 whole entry, looked up): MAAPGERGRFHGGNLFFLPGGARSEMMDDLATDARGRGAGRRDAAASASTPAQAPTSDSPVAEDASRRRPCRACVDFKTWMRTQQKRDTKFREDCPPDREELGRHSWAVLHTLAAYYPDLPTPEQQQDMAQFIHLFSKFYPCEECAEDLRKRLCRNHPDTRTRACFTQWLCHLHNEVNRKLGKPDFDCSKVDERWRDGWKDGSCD
Ecoli rRNA inh: inhibitors of bacterial rRNA selective over humanized ribosomes | GFP signal change (wild-type ribosome), % (no concentration beside the values) | 350,000 compounds, 1.6% hits | AID 720706 | E. coli WT GFP vs humanized-ribosome RFP mutants, fluorescence, 24 h; stronger effect = lower value; DMSO median 0, no signal -100;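 active = significant combined selectivity score with lowered wild-type GFP, culture density cut under 30%, mutant RFP and density less affected; inactive = any of these conditions unmet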; also: one replicate is shown; some compounds called inactive have numbers as strong as hits
Ecoli growth: inhibitors of Escherichia coli growth | 330,000 compounds, 0.21% hits | AID 1053175 | OD600 absorbance (no concentration beside the values) | OD600, 23 h; stronger effect = lower value;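 active = OD600 absorbance below the run mean of sample wells minus 3.6 SD, in any replicate, cut at about 0.56 in these data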;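 also: stock transfer was 300 nL into about 60 µL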
Beta2AR agonist: activates human beta-2 adrenergic receptor causing internalization | AID 504454 | Am2.2-beta2AR cells, FAP receptor internalization, flow cytometry; reference of the scale not given here | response, % (no concentration beside the values) | P07550 | 340,000 compounds, 0.43% hits;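 active = response above a set limit, near 3 SD of response in nonfluorescent compounds, cut at about 42% in these data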;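 also: stock transfer was 100 nL into about 11 µL; a reference agonist was the positive control; negative values mostly stem from fluorescent compounds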
FGF22 binding: shifts melting point of recombinant human FGF22. Q9HCT0. recombinant FGF22 thermal shift, SYPRO orange fluorescence; percent of sucrose octasulfate shift, DMSO zero. calls only at 9.99 µM. 340,000 compounds, 1.5% hits;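 active = melting point raised past a set limit in the mean and every replicate; three in four hits are not shown here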
Target sequence (Q9HCT0 whole entry, looked up): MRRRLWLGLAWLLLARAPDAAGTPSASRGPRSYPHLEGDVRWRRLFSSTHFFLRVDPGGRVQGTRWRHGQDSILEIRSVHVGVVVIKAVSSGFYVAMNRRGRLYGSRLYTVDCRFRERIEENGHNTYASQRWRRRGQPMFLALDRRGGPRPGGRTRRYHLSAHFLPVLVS
UCH37 inh: inhibitors of human deubiquitinating enzyme UCH37; Q9Y5K5; purified proteasome/UCH37, Ub-AMC cleavage fluorescence; inhibition, % (concentration not given with the values); 330,000 compounds, 0.33% hits;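 active = mean of two replicates above 20%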;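 also: 0% = compound-free wells with enzyme and 100% = wells lacking proteasome; stock transfer was 100 nL into about 20 µL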
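Material: Human UCH37 enzyme supplied as purified proteasome complex | Schedule: 30 min preincubation with enzyme, 25 min cleavage at room temperature | Detection: AMC fluorescence 355/460 nm | Measure: % inhibition of Ub-AMC cleavage fluorescence | Controls: Wells without proteasome as full block, compound-free enzyme plus substrate as uninhibited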
Ecoli rRNA inh OD600: also measured in Ecoli rRNA inh; calls as there; OD600 change, %; measured here: OD600 growth;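 optical density of the mix in the first replicate; 0 = DMSO median and -100 = no signal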
Ecoli rRNA inh RFP: also measured in Ecoli rRNA inh; calls as there; RFP signal change, %; measured here: RFP humanized mutant strains;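 first replicate; 0 = DMSO median and -100 = no signal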
* marks the source's active call; other numbers are inactive results; i = inactive; . = no result given; & = joins results of further samples. Some of the compounds tested (hit frequency here may not be typical).

Below each SMILES: HNF4A DNA FP	ALR inh	Ecoli rRNA inh	Ecoli rRNA inh OD600	Ecoli rRNA inh RFP	Ecoli growth	Beta2AR agonist	FGF22 binding	UCH37 inh
Cc1cc2c(=O)n(C)c(SCC(=O)NCC3CCCO3)nc2s1 (configuration not stated)
→ -2.7	.	5	-3	-2.8	.	9	i	.
NC(=O)CSCc1cccc(Br)c1
→ 1.1	-1	.	.	.	0.71	-8	.	-0.4
CCC(CC)C(=O)c1c[nH]c(C(=O)NN)c1
→ 2.4	-4	-15	-6	-2.2	0.66	-8	i	3.7
Cc1ccc(-c2nnn(CC(=O)N(CC3CCCO3)C(C(=O)NCC3CCCO3)c3ccc(F)cc3)n2)o1 (configuration not stated)
→ 0.4	-4	.	.	.	0.75	0	.	4.9
CCCC(=O)N1CCC1(C)C(=O)NS(=O)(=O)c1ccccc1 (configuration not stated)
→ -2.3	.	12	21	0.4	.	.	i	.
Cc1ccc(S(=O)(=O)CCC(=O)N2CCN(c3ccccc3F)CC2)cc1
→ 14	-2	-10	-11	4.3	0.7	0	i	-1.6
O=S(=O)(O)c1cccnc1SCc1ccccc1
→ -2.7	3	10	9	1.4	0.67	14	.	2.0
Cc1ccccc1NC(=O)NC1(C(=O)NCc2ccco2)CCCCC1
→ -1.6	-1	2	-1	1.3	0.65	2	i	0.4
COc1ccccc1CN(C)C(=O)CN1CCN(C(=O)c2cccs2)CC1
→ 2.6	-1	5	11	-0.3	0.67	-7	i	0.7
CC(=O)c1cc2c(cc1NS(=O)(=O)c1cccc(C(=O)O)c1)OCO2
→ 0.0	-1	2	-22	5.6	0.66	8	i	4.1
Cc1ccc(NC(=O)CCNC(=O)c2ccc(Cl)cc2)cc1C
→ -3.2	2	-3	6	1.4	0.64	2	i	0.9
CCCCCC(=O)Nc1cccc(C2=NOC3(C2)C[C@H](C(N)=O)N(C(=O)c2ccccc2)C3)c1 (some centres not stated)
→ -2.8	-5	.	.	.	.	-1	.	1.1
COc1cc2c(cc1OC)CN(C(=O)CCC(=O)c1ccc(F)cc1)CC2
→ 6.2	-2	-3	14	-2.6	0.64	-3	i	-0.4
O=C(CNS(=O)(=O)c1ccccc1F)OCC(=O)c1c[nH]c2ccccc12
→ 3.7	-6	-2	1	2.3	0.66	15	i	-5.0
COc1ccc(C2=Nc3ccccc3OC2)cc1
→ 0.5	10	.	.	.	0.67	1	.	4.8
CN(C)c1ccc(/C=N/NC(=O)CN(c2ccccc2Cl)S(C)(=O)=O)cc1Br
→ -0.9	-11	.	.	.	.	8	.	.
O=[N+]([O-])c1cccc(-c2ccc(/C=N/n3c(-c4ccccc4)n[nH]c3=S)o2)c1
→ 0.7	-5	-1	9	2.5	.	-1	i	.
COC(=O)[C@@]1(Cc2ccccc2)[C@H]2C(=O)N(C)C(=O)[C@H]2[C@H]2CN=C(SC)N21
→ 2.3	.	20	5	4.3	0.71	0	i	0.1
O=C(Cc1ccccc1)NCCc1cccc(Cl)c1
→ 4.4	.	.	.	.	0.71	-3	.	1.9
COc1ccccc1CCNC(=O)C(=O)c1cn(CC(=O)N2CCCC2)c2ccccc12
→ -2.9	-20	-38	-32	-7.4	0.67	7	i	6.8
Cc1ccc2nc(Nc3nc(-c4ccccc4)cc(=O)[nH]3)nc(C)c2c1
→ 1.9	.	.	.	.	0.75	-8	.	1.3
Cc1nc2cc(Nc3nnc(-c4ccccc4)c4ccccc34)ccc2n1C
→ 3.2	-3	.	.	.	0.66	5	.	-23
Cc1cc(-c2cn3ccccc3n2)c(C)n1-c1ccccc1
→ 6.2	13	8	12	13	0.66	-4	i	-63
CCOc1ccccc1NC(=O)COc1cccnc1[N+](=O)[O-]
→ 3.4	-1	-6	-2	2.1	0.64	-10	i	-0.4
O=C(Nc1nnc(COc2ccc(Cl)cc2)s1)c1ccco1
→ -0.3	-14	10	8	-0.3	0.71	-12	i	-0.9
Cc1c(/C=N/NC(=O)c2ccc(O)cc2)c2ccccn2c1C(=O)c1ccc(F)cc1
→ 3.1	1	.	.	.	.	18	.	.
COc1ccc(NC(=S)NCCCN2CCCC2)cc1Cl
→ 0.7	.	1	4	-1.4	0.68	2	i	1.5
CCOC(=O)c1c(-c2ccccc2Cl)cn2ccccc12
→ -0.8	-1	.	.	.	0.71	-4	.	-99
CCOC(=O)C1CCCN(Cc2nc(Cc3cccc(F)c3)no2)C1 (configuration not stated)
→ 5.0	.	6	-5	-3.2	0.65	-4	i	1.3
COc1ccc2c(c1)C(=O)/C(=C/C=C/c1ccccc1)CC2
→ -0.4	-10	.	.	.	0.67	-1	.	6.7
Cc1cccc(C)c1NC(=O)CCCSc1nnc(-c2ccco2)o1
→ 1.5	-18	.	.	.	0.64	-4	.	0.5
C[C@H](CO)N1C[C@H](C)[C@@H](CN(C)Cc2ccncc2)Oc2c(NC(=O)C3CC3)cccc2C1=O
→ -0.6	0	0&-2	1&6	-2.7&0.0	.	1	i	0.9
COc1ccccc1CNc1nc(S(=O)(=O)c2ccccc2)c(Cl)s1
→ 2.4	.	.	.	.	0.69	-1	.	-17
COc1cc2c(cc1OC)CN(CC(=O)Nc1ccc(Cl)c(S(=O)(=O)N(C)C)c1)CC2
→ 1.1	-4	.	.	.	.	-7	.	.
O=C(NC1CCCCC1)N1CCCC(c2nc(-c3cccs3)no2)C1 (configuration not stated)
→ 3.5	5	.	.	.	0.69	3	.	0.8
CC1CCCC(C)N1CCCNC(=O)Cn1c(=O)c2cccn2c2cccnc21 (configuration not stated)
→ 0.0	-2	7	10	0.7	0.71	-5	i	-1.0
COCCC1CCCCN1Cc1cn(-c2ccccc2)nc1-c1ccc2c(c1)OCO2 (configuration not stated)
→ 5.7	-7	5	-11	-1.1	0.67	-31	i	0.5
N/N=C1\CCCc2nonc21
→ 0.3	3	13	19	-1.9	.	-3	i	.
O=C(c1ccccc1)c1ccc(OC(=O)C2CCCCC2)cc1
→ 2.8	-2	2	1	-8.7	0.65	-12	i	6.1
N#Cc1ccccc1N1CCN(C(=O)c2ccc(NC(=O)c3ccc(Br)o3)cc2)CC1
→ -6.4	-19	.	.	.	0.7	-4	.	-1.8
Cc1ccc(S(=O)(=O)CC(N)=O)cc1
→ 0.9	-5	3	1	1.1	0.68	4	i	0.8
Clc1ccc(CSc2cnnc3ccccc23)cc1Cl
→ 0.3	.	6	10	2.3	0.68	-4	i	4.9
COc1ccc(Cl)cc1NC(=O)C/C(C)=N/NC(=O)CCc1ccccc1
→ -0.5	.	8	10	0.4	.	4	i	.
Cc1cc(C)cc(NC(=O)C2(c3ccccc3)CC2(Cl)Cl)c1 (configuration not stated)
→ -1.0	.	.	.	.	0.66	26	.	1.5
CCOc1ccc(-c2cc(C(=O)NC3CCCCC3)[nH]n2)c(C)c1
→ 2.0	.	5	14	-0.1	.	.	i	.
COc1ccccc1C/C(N)=N/OC(=O)COc1ccc(C)cc1
→ 2.5	-11	-13	-8	-0.3	0.65	-7	i	5.6
O=C(O)COc1ccc(Br)cc1CP(=O)(c1ccccc1)c1ccccc1
→ 1.3	0	3	0	-6.0	0.71	5	i	1.1
COc1ccc(S(=O)(=O)N2CCCCCC2)cc1C(=O)N1CCN(c2ccccc2C)CC1
→ -0.4	-3	-4	-26	11	0.68	1	i	-1.4
Cc1sc2nc(CSC(C)C(=O)N3CCOCC3)[nH]c(=O)c2c1C (configuration not stated)
→ 4.7	-23	4	7	0.5	0.66	3	i	-2.7
Cc1ccc(S(=O)(=O)N2CCCCC2CCNC(=O)C(=O)NCc2ccncc2)cc1 (configuration not stated)
→ -1.2	2	2	9	1.1	0.68	-1	i	2.6
Cc1cc2ccccn2c1C(=O)c1ccc(S(=O)(=O)N(C)C)cc1
→ 1.0	-6	8	10	1.5	0.71	-2	i	2.3
Fc1ccc(CNc2ncnc3cc(Cl)ccc23)cc1
→ 0.3	1	-21	-32	-10	0.66	0	i	-0.1
O=C(CSc1nccn1-c1cccc(F)c1)NC1CCCC1
→ 2.8	-5	10	13	1.0	0.7	4	i	1.8
COc1ccc(C=Cc2ccc3ccccc3n2)c(OC)c1
→ 4.9	.	41	-38	7.8	.	.	i	.
COc1ccccc1CNC(=O)C1CCN(C(=O)[C@@H]2Cc3ccccc3CN2)CC1
→ -2.6	-4	15	22	0.7	0.67	-1	i	-1.1
COC(=O)c1cc2occc2n1Cc1cccc(C)c1
→ -1.4	10	-21	-23	-1.9	0.7	0	i	-14
Cc1noc(C)c1C(=O)Nc1ccc(S(=O)(=O)N2CCCCC2)cc1
→ 3.0	-4	-2	3	2.5	0.73	-9	i	0.3
O=S(=O)(Nc1nc2ccccc2[nH]1)c1ccccc1
→ 0.0	-23	.	.	.	0.7	3	.	1.2
COc1ccc(Oc2c(Cl)cnn(-c3ccc(C)cc3)c2=O)cc1
→ 0.2	1	.	.	.	0.72	28	.	3.6
CCOC(=O)N1CCN(C(C(=O)NC2CCCC2)c2ccco2)CC1 (configuration not stated)
→ 0.3	.	7	21	2.6	.	.	i	.
CCC(Oc1cc(Cl)ccc1Cl)C(=O)NN1C(=O)C2C3CCC(C3=C(C)C)C2C1=O (configuration not stated)
→ -0.6	-6	.	.	.	0.76	2	.	3.6
Cc1nn2c(=S)[nH]nc2[nH]c1=O
→ -3.7	95*	14	9	0.1	0.69	3	.	0.6
CCOC(=O)c1ccc(NC(=O)c2nc[nH]c2C(=O)NC2CCN(C(=O)OC(C)(C)C)CC2)cc1
→ 4.1	3	-7	-14	-8.3	0.66	7	i	-0.8

Some of these compounds in order of their number in UCH37 inh, smallest number first.
Below each SMILES: HNF4A DNA FP	ALR inh	Ecoli rRNA inh	Ecoli rRNA inh OD600	Ecoli rRNA inh RFP	Ecoli growth	Beta2AR agonist	FGF22 binding	UCH37 inh
Cc1sc2nc(CSC(C)C(=O)N3CCOCC3)[nH]c(=O)c2c1C (configuration not stated)
→ 4.7	-23	4	7	0.5	0.66	3	i	-2.7
COc1ccc(S(=O)(=O)N2CCCCCC2)cc1C(=O)N1CCN(c2ccccc2C)CC1
→ -0.4	-3	-4	-26	11	0.68	1	i	-1.4
Cc1cc2ccccn2c1C(=O)c1ccc(S(=O)(=O)N(C)C)cc1
→ 1.0	-6	8	10	1.5	0.71	-2	i	2.3
